Screening data (PubChem)
RE007 growth inh – less growth of the S. pombe RE007 Vpr strain | AID 651644 | S. pombe RE007 Vpr strain, BacTiter-Glo ATP luminescence, 24 h; control for the full effect not named in the record | 360,000 compounds, 0.21% hits | Potency, µM (doses to about 92.2 µM), for the others: top-dose activity change, negative = less growth; active = well fitted falling curve with a large enough effect; inconclusive = small, poorly fitted or top-dose-only effect; inactive = no such curve, though single readings can be large or run the other way;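 also: nearly all actives have a fitted effect of over 50% in size; the assay follows cell death caused by Vpr and the record does not say whether a fall means rescue or toxicity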
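Fission yeast RE007 carrying one integrated HIV-1 vpr copy, seeded at OD 0.01 in PMG+AL medium with 23 nL pinned compound. Grown 24 h at 30 degrees; viability read by BacTiter-Glo luminescence after 5 min.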
2A StopGo – FMDV 2A StopGo reporter, luciferase signal. human cells with a luciferase reporter of 2A StopGo recoding; control for the full effect not named in the record. Potency, µM (titrated, usually from 57.9 µM), without a hit: at the highest dose signal change, negative = less light. 410,000 compounds, 1.2% hits. AID 1159524; active = well fitted falling curve with a large enough effect; inconclusive = small, poorly fitted or top-dose-only effect; inactive = no such curve, though single readings can be large or run the other way; tested in HEK293T cells; also: nearly all actives have a fitted effect of over 45% in size; luciferase light after 4 h
Starred values were filed as active, the others as inactive; u = inconclusive; [ ] = dose if it differs, or a comment. % is scaled to controls: 0 for no effect and ±100 for the full control effect; potency is read from the fitted curve at half-maximal effect. These rows are one share of the data. The share of hits here may be higher or lower than overall.

SMILES	RE007 growth inh	2A StopGo
COc1cccc(-c2cnc3c(NC=O)cc(-c4ccc(O)c(OC)c4)cn23)c1	7%[18.4 µM]	-23%
Cn1c(=O)c2c(ncn2CC(=O)OCC(=O)c2ccc(OC(F)F)cc2OC(F)F)n(C)c1=O	7%	-14%
CCOc1ccc(NC(=O)CN(C)C(=O)c2ccc3c(c2)S(=O)(=O)N=C2CCCCCN23)cc1OCC	20%	-3%
O=C(Nc1ccc(Cl)cc1)C1Cc2c(-c3ccc4c(c3)OCO4)ccnc2O1 (stereo not drawn)	-11%	u
CCOC(=O)[C@]12Cc3ccsc3[C@H]1N(Cc1ccccc1)C(=O)c1ccccc12	-10%	u
CCc1nc2ccc(C(=O)N(CC)CCN(C)C)cn2c1N(C)Cc1nccs1	-20%	-1%
C[C@@H]1CN([C@@H](C)CO)C(=O)CCCn2nncc2CO[C@H]1CN(C)C(=O)Cc1ccccc1	1%	-22%
O=C(COn1nnc2ccc(S(=O)(=O)N3CCOCC3)cc21)NCc1cccc(Cl)c1	-4%	-27%
CN1C[C@@H]2[C@@H]3C(=O)N(Cc4ccccc4)C(=O)[C@@H]3[C@](C)(C1=O)N2C(=O)c1ccc(F)cc1	-3%	-8%
COc1ccccc1-c1ccc2c(c1)C(C)(Cc1ccc(F)c(Cl)c1)C(=O)N2 (stereo not drawn)	0%	0%
CCCCCCCCN1C(=O)[C@H](CC(=O)NCc2ccccc2)C[C@@]2(C(=O)OCC)CCCC=C12	-12%	-14%
CC(O)(c1cccnc1)c1nc(-c2cccc3cccnc23)cs1 (stereo not drawn)	-3%	-7%
O=C(CCc1ccccc1)N1Cc2cc(N3CCOCC3)ccc2-n2nncc2C1	2%	-7%
CC1=C(O)C(=O)C(C2=C(O)C(=O)C(C)=C(O)C2=O)=C(O)C1=O	-15%	-18%
C#Cc1cccc(C(=O)N(Cc2cccnc2)CC2CCCN(C3CCCCC3)C2)c1 (stereo not drawn)	-20%	-10%
CCc1nc2ccc(C(=O)NCCOc3ccc(OC)cc3)cn2c1N(CC)Cc1ccc(OC)c(OC)c1	-18%	-10%
N#Cc1ccccc1OCC(=O)Nc1nc(-c2ccccn2)cs1	-7%	-9%
COc1ccccc1CNc1cccc(C)n1	1%	-3%
O=C(Nc1ccc2c(c1)OCCO2)C(c1ccccc1)n1c(=O)c(-c2cc3ccccc3[nH]2)nc2ccccc21 (stereo not drawn)	3%	4%
CC1=C(N2CCCCC2)CCC1=O	-4%	-6%
COc1ccc(NC(=O)c2cc(-c3cc(Cl)ccc3OC)n[nH]2)cc1OC	8%[18.4 µM]	-22%
COc1ccc(S(=O)(=O)N2CCN(C(=O)c3cccc(S(=O)(=O)N4CCCC4)c3)CC2)cc1	-1%	0%
COc1ccc(-c2ccc(C(=O)NCc3ccncc3)c3occc23)c(C)c1	6%[18.4 µM]	-19%
CN(Cc1ccccc1)C(=O)c1cccc(NC(=O)Cc2ccc(NC(=O)C3CCN(S(=O)(=O)c4cccc([N+](=O)[O-])c4)CC3)cc2)c1	3%	-19%
CCCS(=O)(=O)NC(=O)C1(C)CCCN(C(=O)c2cc(-c3ccccc3)cs2)C1 (stereo not drawn)	0%	11%
Continuation:
SMILES	RE007 growth inh	2A StopGo
COc1cccc(Cn2c3ccc(NC(=O)Cc4cc(OC)ccc4OC)cc3c(=O)n2C)c1	-19%[18.4 µM]	7%
Cc1ccccc1S(=O)(=O)N(C)C[C@@H]1OCc2cnnn2CCCC(=O)N([C@H](C)CO)C[C@H]1C	-15%	-17%
COc1cccc(C(=O)NCCS(=O)(=O)N2CCCC(C)C2)c1 (stereo not drawn)	3%	-21%
Cc1cc2oc(=O)cc(CN3CCCCC3)c2cc1Cl	-23%	-10%
CC(C)NC(=O)C1(C)CN(S(C)(=O)=O)CC(=O)N1Cc1ccco1 (stereo not drawn)	-5%	-16%
CC(C)C[C@H]1CN([C@@H](Cc2ccccc2)CN2CCC[C@H]2CN2C(=O)C(=O)NC[C@@H]2Cc2ccc(O)cc2)C(=O)C(=O)N1CC1CCCCCC1	0%	3%
O=C1c2ccccc2S(=O)(=O)c2cc(C(=O)N3CCN(C(=O)c4ccccc4)CC3)ccc21	7%	-9%
Cc1ccc(S(=O)(=O)NCc2ccccc2)cc1C(=O)NCC(=O)Nc1c(C)cccc1C	-21%	-6%
O=c1c2cc([N+](=O)[O-])ccc2sn1-c1ccccc1	5.6µM*	52%[activator]
CC(=O)NC(C)(c1ccccc1)c1nc(-c2cccc(F)c2)cs1 (stereo not drawn)	-4%	-13%
Cc1noc(C)c1-c1ccc(C(=O)NCc2cccc(Cl)c2)c2occc12	1%	-4%
CCOC(=O)[C@]12CCCC=C1N(CCC1=CCCCC1)C(=O)[C@H](CC(=O)N1CCCCC1)C2	u	-2%
CC1(C)CC(NCc2ccccc2)=CC(=S)N1	-18%	0%
O=C(COC(=O)c1ccccc1Cl)Nc1cccc(S(=O)(=O)N2CCCCC2)c1	-8%	-14%
CC1=C(C(=O)N(C)C)CC(CC(=O)NCCN2CCOCC2)C(=O)N1Cc1ccccc1 (stereo not drawn)	-4%	0%
O=C(c1ccc(-c2ccccc2)cc1)N1CCC2CC1c1cc(-c3ccc4c(c3)OCO4)ccc12 (stereo not drawn)	7%	23%
Cc1cc(Br)c(NC(=O)CN2C(=O)NC3(CCOc4ccccc43)C2=O)c(Br)c1 (stereo not drawn)	0%	-20%
CC(C)C[C@H]1CNC(=O)C(=O)N1CC1CCN(CC2CCC(C)CC2)CC1 (stereo partly drawn)	-6%	-8%
O=C1NC(Cc2ccccc2)c2nc3cc(F)c(F)cc3c(=O)n2-c2cc3ccccc3cc21 (stereo not drawn)	-1%	u
CC(=O)N1CCN(S(=O)(=O)c2cccc(C(=O)NC3CCCC(C)C3C)c2)CC1 (stereo not drawn)	-26%	-14%
CCCNC(=O)C1(C)CCCN(Cc2ccc(C#N)cc2)C1 (stereo not drawn)	-2%	-14%
CCCCN1C(=O)C(CC(=O)NC(c2ccccc2)c2ccccc2)CC(C(=O)N2CCOCC2)=C1C (stereo not drawn)	-11%	-12%
Cc1cccc(C)c1NC(=O)C1C(c2ccc3c(c2)OCO3)=Nc2ccccc2N1C(=O)c1cccc2ccccc12 (stereo not drawn)	-3%	1%
CC(C)C[C@H]1CN([C@@H](CC(C)C)CN2CCC[C@H]2CN2C(=O)C(=O)NC[C@@H]2Cc2ccc(O)cc2)C(=O)C(=O)N1CCc1ccccc1	27%	-9%
CN(C)CCNC(=O)c1cccc(-c2cnc3c(NC=O)cc(-c4ccc(S(C)(=O)=O)cc4)cn23)c1	6%[18.4 µM]	6%

Next part, overlapping the part above by seven compounds.
SMILES	RE007 growth inh	2A StopGo
O=C1NC(Cc2ccccc2)c2nc3cc(F)c(F)cc3c(=O)n2-c2cc3ccccc3cc21 (stereo not drawn)	-1%	u
CC(=O)N1CCN(S(=O)(=O)c2cccc(C(=O)NC3CCCC(C)C3C)c2)CC1 (stereo not drawn)	-26%	-14%
CCCNC(=O)C1(C)CCCN(Cc2ccc(C#N)cc2)C1 (stereo not drawn)	-2%	-14%
CCCCN1C(=O)C(CC(=O)NC(c2ccccc2)c2ccccc2)CC(C(=O)N2CCOCC2)=C1C (stereo not drawn)	-11%	-12%
Cc1cccc(C)c1NC(=O)C1C(c2ccc3c(c2)OCO3)=Nc2ccccc2N1C(=O)c1cccc2ccccc12 (stereo not drawn)	-3%	1%
CC(C)C[C@H]1CN([C@@H](CC(C)C)CN2CCC[C@H]2CN2C(=O)C(=O)NC[C@@H]2Cc2ccc(O)cc2)C(=O)C(=O)N1CCc1ccccc1	27%	-9%
CN(C)CCNC(=O)c1cccc(-c2cnc3c(NC=O)cc(-c4ccc(S(C)(=O)=O)cc4)cn23)c1	6%[18.4 µM]	6%
O=C(Nc1cccc(Cl)c1)c1csc([C@H]2C[C@H](O)[C@@H](CO)O2)n1	-8%[18.4 µM]	24%
O=C(NC1CCCCC1)[C@@H]1CC=C[C@@H]2CCN(C3CCCCC3)C(=O)[C@@H]21	-12%	11%
O=C(OC1CC2CC1[C@H]1CCCCN1C2=O)N1CCN(c2ccccc2)CC1 (stereo partly drawn)	-4%	-23%
c1ccc(COc2cccc(-c3cc4nc(NCCOc5ccccc5)ccn4n3)c2)cc1	-28%	u
CC(=O)c1ccc(Nc2nc(C(N)COCc3ccccc3)cs2)cc1 (stereo not drawn)	13%	0%
COC(=O)CCCC[C@@H]1O[C@H](CCc2ccccc2)Cc2[nH]c(=S)[nH]c(=O)c21	10%	-19%
Fc1ccc(-c2ccc3c(c2)C2CC3CCN2)cc1 (stereo not drawn)	3%	-21%
COC(=O)C1=C(c2cccc(OC)c2OC)C[C@@H]2CC[C@H]1N2C(=O)NCc1ccc(F)cc1	-4%	-13%
CCCCCCCCN1C(=O)[C@H](CC(=O)NCCCN2CCCC2=O)C[C@@]2(C(=O)OCC)CCCC=C12	-6%	-16%
COc1cc(C)c(C(=O)Oc2cc(C)c(C(=O)O)c(O)c2C)c(O)c1C	-21%	-20%
COc1ccccc1S(=O)(=O)N[C@@H]1CC[C@@H](CCn2cc(C3CC3)nn2)O[C@@H]1CO	0%	-13%
CN(Cc1ccccc1)C(=O)c1ncn2c1C(=O)N(C)CC2	-5%	-2%
CCCCN(C(=O)c1cc(S(=O)(=O)N2CCOCC2)ccc1N1CCOCC1)c1ccccc1	-4%	-17%
CC1(Cc2ccc(F)cc2)C(=O)Nc2ccc(-c3cccnc3)cc21 (stereo not drawn)	-18%	0%
Cc1cccc(S(=O)(=O)NC(=O)C2(C)CCN2C(=O)C/C=C/c2ccccc2)c1 (stereo not drawn)	16%[18.4 µM]	-14%
CNc1cccc(-c2cc(OC)c(OC)c(OC)c2)n1	-17%	3%
Nc1ncnc2c1ncn2[C@@H]1O[C@H](CO)C[C@H]1O	-8%[18.4 µM]	-7%
Cc1ccc(-c2nc3ccc(Cl)cn3c2Cc2cccc(F)c2)cc1	-16%	17%
CCOC(=O)N1CCN(S(=O)(=O)N2CCCC(C(=O)NCc3ccc(C)cc3)C2)CC1 (stereo not drawn)	-1%	-20%
COc1cccc(Nc2nc(C(N)C3CCCCC3)cs2)n1 (stereo not drawn)	-8%	-26%
C[C@H](CO)N1C[C@H](C)[C@@H](CN(C)S(=O)(=O)c2ccc(-n3cccn3)cc2)OCc2cnnn2CCCC1=O	-1%	0%
C=CCNc1ncnc2c1ncn2[C@H]1CN(Cc2ccc(-c3ccccc3)cc2)C[C@@H](CO)O1	-1%	u
COc1ccc(Cn2cc(CN3CC(N4CCCC4)CS3(=O)=O)nn2)cc1 (stereo not drawn)	6%	-16%
CC(C)CN1CCC1(C)C(=O)Nc1ccc(OC(F)F)cc1 (stereo not drawn)	-12%	-1%
CCOC(=O)C1Nc2ccccc2C2c3ccccc3CC12 (stereo not drawn)	10%	-22%
Next part
SMILES	RE007 growth inh	2A StopGo
CC(=O)N(CCc1ccccc1)c1ccc2c(c1)C1CC2CCN1C(=O)OCc1ccccc1 (stereo not drawn)	-8%	u
CCCCCCN1C[C@H](n2cc(-c3ccc(F)cc3)nn2)[C@@H](O)C[C@@H]1c1ccc(OC)cc1	-1%	-8%
CCOC(=O)C1=CCN(S(=O)(=O)c2ccccc2Br)C1c1cccc(F)c1 (stereo not drawn)	4%	-24%
CCN(CC)CCC12CC(C)OC1=Nc1ccccc1NC2=O (stereo not drawn)	1%	-11%
CC1=C(C(=O)N(C)C)CC(CC(=O)NCc2cccs2)C(=O)N1Cc1ccc(F)cc1 (stereo not drawn)	5%	-12%
CCCS(=O)(=O)NC(=O)C1(C)CCCN(C(=O)c2cc(F)cc(F)c2)C1 (stereo not drawn)	7%	-18%
COc1cc(NS(=O)(=O)c2ccc(NC(=S)NC(C)=O)cc2)nc(OC)n1	1%	92%[activator]
COc1ccc(Cn2c(-c3ccccc3C)nc3c(c(=O)c4ccccc4n3C)c2=O)cc1	12%	-16%
COc1ccc(CN2CC[C@H]3C=CC[C@@H](C(=O)Nc4ccc(Cl)c(C(F)(F)F)c4)[C@H]3C2=O)cc1OC	-10%	-1%
COc1ccc(S(=O)(=O)NC(=O)C2(C)CCN2C(=O)C2CC2)cc1 (stereo not drawn)	-2%	-3%
CC1(C(=O)NS(=O)(=O)c2ccccc2)CCN1C(=O)Cc1cccc2ccccc12 (stereo not drawn)	16%	-19%
O=C(c1ccc(Br)cc1)N1CCN(c2ccccn2)CC1	-26%	-23%
CCOc1cc(C(=O)N2CCC(CC3CC(c4ccccc4)=NO3)(C(=O)NCc3ccc(OC)cc3)CC2)cc(OCC)c1OCC (stereo not drawn)	7%	-21%
Cc1nc(NC(=O)C(C)(C)C)sc1-c1nc(N)sc1-n1cc(-c2ccccc2)nn1	26%	-5%
C[C@H](CO)N1C[C@H](C)[C@H](CN(C)C(=O)Oc2ccccc2)OCc2cnnn2CCCC1=O	9%	-7%
O=C(Nc1ccccc1)Nc1ccc(O)c2ccccc12	6%	u
Cc1ccc(CNC(=O)Nc2nnc([C@@H]3C[C@H](O)[C@@H](CO)O3)s2)cc1	0%[18.4 µM]	-13%
O=C1CCCCCCC(=O)[C@H](O)C[C@H](c2ccccc2)O1	-17%	-24%
COc1ccc(NC(=O)C2Cc3c(-c4ccccc4Oc4ccccc4)ccnc3O2)cc1 (stereo not drawn)	10%	0%

Gathered by group, the compounds so far with a furan ring, fused or not
SMILES	RE007 growth inh	2A StopGo
COc1ccc(-c2ccc(C(=O)NCc3ccncc3)c3occc23)c(C)c1	6%[18.4 µM]	-19%
CC(C)NC(=O)C1(C)CN(S(C)(=O)=O)CC(=O)N1Cc1ccco1 (stereo not drawn)	-5%	-16%
Cc1noc(C)c1-c1ccc(C(=O)NCc2cccc(Cl)c2)c2occc12	1%	-4%
